BasE inh = blocks the Acinetobacter baumannii siderophore enzyme BasE | purified BasE, fluorescence polarization binding displacement | inhibition, % (test concentration not listed) | 84,000 tested, 0.1% active | AID 485350;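 active means both replicates above 25% with normal brightness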;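 further: 0% = negative plate control signal and 100% = positive plate control signal; stock transfer was 100 nL into about 30 µL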
KSHV LANA nucl = LANA-nucleosome interaction inhibition; FITC-LANA1-23 / chicken nucleosome fluorescence polarization; stronger effect = lower value; z-score (test concentration not listed); 51,000 tested, 0.3% active; AID 720717;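 active means both repeat wells score below -2 in polarization z-score versus plate sample wells, excluding overly bright wells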;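 further: 100 nL library stock added to about 30 µL; numbers are from one replicate; some results filed as inactive read as strong as hits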
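Assay system: FITC-LANA peptide and chicken nucleosomes; input: 240 nM purified chicken nucleosomes (480 nM peptide binding sites), final; also added: 50 nM FITC-LANA1-23 probe; medium: TEN-BT buffer, pH 7.5; doses: pin-transferred compound, 100 nL; times: 10–45 min, room temperature; technique: fluorescence polarization; replication: duplicates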
* marks the source's active call; other numbers are inactive results; . = not tested or not shown; & = joins results of further samples. An excerpt; the hit share may differ from the screen's.

smiles | BasE inh | KSHV LANA nucl
CCn1cc(CCCC(=O)N2CCC3(CC2)OCCO3)c2ccccc21 | 2.8 | 0.66
CC(O)CNC1CCCC(C)C1 (stereo not given) | -0.4 | 2.4
CNC(C)Cc1ccccn1 (stereo not given) | 3.6 | 0.027
CCC1CN(C)CCC1(O)c1ccccc1 (stereo not given) | -2.2 | -0.12
CN1C2CC(=O)CC1C(O)C2 (stereo not given) | -5.7 | 1.8
Cc1cc(OCc2cccc(C(F)(F)F)c2)c2c3c(c(=O)oc2c1)CCC3 | 0.6 | .
C=C(C)C1CNC(C(=O)O)C1CC(=O)O (stereo not given) | -0.6 | 0.086
Cc1ccc(S(=O)(=O)NC(CC(=O)N2CCC3(CC2)OCCO3)c2ccco2)cc1 (stereo not given) | 1.2 | -0.11
Oc1cc(Cl)c(Cl)cc1O | 4.4 | 0.29
C=CCN1C(=O)/C(=C\c2ccc(N(CC)CC)cc2)C(=O)NC1=S | 1.6 | -0.18
Cc1cc(C)cc(N2C(=O)CC(=O)NC2=S)c1 | 1.7 | .
COC(=O)C1=C(N)Oc2ccccc2C12C(=O)N(C)c1c2c(=O)oc2ccccc12 (stereo not given) | -0.4 | -0.82

Some of the entries so far, with two lines to a compound:
Each structure is followed by: BasE inh, KSHV LANA nucl
> Cc1cc(OCc2cccc(C(F)(F)F)c2)c2c3c(c(=O)oc2c1)CCC3
→ 0.6, .
> Cc1cc(C)cc(N2C(=O)CC(=O)NC2=S)c1
→ 1.7, .
> C=CCN1C(=O)/C(=C\c2ccc(N(CC)CC)cc2)C(=O)NC1=S
→ 1.6, -0.18
> CC(O)CNC1CCCC(C)C1 (stereo not given)
→ -0.4, 2.4
> CCn1cc(CCCC(=O)N2CCC3(CC2)OCCO3)c2ccccc21
→ 2.8, 0.66

Next part.
smiles | BasE inh | KSHV LANA nucl
CCCN1CCC[C@@H]2Cc3[nH]ncc3C[C@H]21 | -2.0 | -0.36&0.17
CCN1C[C@]2(COC)CC[C@H](O)C34C5C[C@@H]6C(OC)C[C@@](O)(C5[C@H]6OC(C)=O)[C@@H](CC32)[C@@H]14 (stereo not given in full) | -0.8 | -0.12
CC(C#N)N1CCN(c2ccc(F)cc2)CC1 (stereo not given) | -0.7 | .
CCN(CC)P1(=S)c2c(C)nn(CCC#N)c2N=C(c2ccc(F)cc2)N1C (stereo not given) | 1.3 | .
CC12CN3CN(C1)CC(C)(C3)C2=O | 0.6 | 0.064
OCCC1CNCCN1Cc1c(F)cccc1Cl (stereo not given) | -2.8 | 0.058
CN(C)C(=O)O/N=C(\N)c1ccc(OCc2ccccc2F)cc1 | -7.7 | 2.2
CN1CC[C@@H](c2ccc(F)cc2)[C@H](COc2ccc3c(c2)OCO3)C1 | . | -0.32
Cc1c(C(=O)O)c2ccccc2n1C | 1.2 | -0.066
Clc1ccccc1NC1=NCCCS1 | 0.4 | .
COc1cccc2c1OC[C@H]1CON(C)[C@@H]21 | . | 0.48
CCN(CC)c1ccc(CN2CC=C(c3ccc(F)cc3)CC2)cc1 | -2.2 | 0.081

Remaining list, next part
smiles | BasE inh | KSHV LANA nucl
COc1ccccc1C(=O)CN1CCCCC1C (stereo not given) | 0.3 | .
C=C(C)CN(CC)C1CCC(CC)CC1 (stereo not given) | 2.5 | -0.0025
Cc1ccc(-n2c(CCC(=O)O)nc3ccccc3c2=O)cc1 | 0.8 | .
Cc1ccc(NC2=NC(C)CS2)c(C)c1 (stereo not given) | -1.1 | .
CN(C)[C@@H]1C(=O)C(C(N)=O)=C(O)[C@@]2(O)C(=O)C3=C(O)c4c(O)cccc4[C@@](C)(O)[C@H]3C[C@@H]12 | -1.4&3.3 | 0.62&0.53&-1.2&0.67
CN(C)C=NC(=O)CN1CCCC1=O | -1.0 | -0.35
CN(C(=O)c1ccc(Cl)cc1)c1ccc(Cl)cc1C(=O)c1ccccc1 | 2.2 | .
CC(C)(C)c1ccc(O)c(CN2CCN(c3ccccc3)CC2)c1 | 2.0 | .
CCN1CCC(NCCOC)CC1 | 1.0 | 0.26
COc1ccc(CN2CCNCC2)c(OC)c1OC | -0.1 | 0.51
CC(Cc1ccccc1)N1C(=O)c2ccccc2C1=O (stereo not given) | -1.1 | -0.14
O=C1NC(=O)C(=C/C=C/c2ccccc2)C(=O)N1 | 2.2 | .

(listing goes on)
smiles | BasE inh | KSHV LANA nucl
N#Cc1ccc(/C=C/C(=O)O)cc1 | -0.4 | .
COCc1cc(OC(=O)N(C)C)nc2c1c(-c1cccs1)nn2C | -0.1 | .
O=C(NCc1cccnc1)NC1CCCCC1 | 2.3 | 0.15
O=C(Nc1cccnc1)c1cccn(Cc2cccc(Cl)c2)c1=O | -3.5 | 0.87
CCCCC1C(=O)NC(=S)NC1=O | 0.1 | .
CC12CN3CN(C1)CC(c1ccccc1)(C3)C2=O | 2.6 | .
O=c1[nH]c2ccccc2o1 | 0.8 | .
COP(=O)(CC(=O)O)c1ccccc1 (stereo not given) | 1.4 | 0.34
Cc1ccc(S(=O)(=O)N=P(Oc2ccccc2)(c2ccc(C)o2)C(C)(C)C)cc1 (stereo not given) | -0.7 | .
CC(=O)N[C@@H](C)C(=O)NCc1cccc(C(F)(F)F)c1 | 1.4 | .
C=C1C(=O)O[C@@H]2C[C@@H](C)[C@@H]3C=CC(=O)[C@@]3(C)[C@@H](O)[C@H]12 | 0.0 | 0.8
Fc1cc(F)c2c(c1)C1C=CCC1C(c1cccnc1)N2 (stereo not given) | 4.1 | 0.23

(listing goes on)
smiles | BasE inh | KSHV LANA nucl
O=C1NC(=O)N(Cc2ccco2)C(=O)/C1=C\c1ccco1 | 4.9 | 0.58
C=CCN1CC[C@]23c4c5ccc(O)c4O[C@H]2/C(=N/N=C2\CC[C@@]4(O)[C@H]6Cc7ccc(O)c8c7[C@@]4(CCN6CC=C)[C@H]2O8)CC[C@@]3(O)[C@H]1C5 | . | -0.78
N#CC(C#N)=NNc1ccccc1 | 0.7 | .
Cc1cc(OC(=O)N(C)C)nc(SCc2c(Cl)cccc2Cl)n1 | . | 0.54
OC(CN1CC=C(c2ccccc2)CC1)C(F)(F)F (stereo not given) | . | -0.83
N=C1SC2CS(=O)(=O)CC2N1Cc1ccccc1Cl (stereo not given) | 2.1 | -1.6
Cn1c[n+](C)cc1C(O)c1ccccc1 (stereo not given) | 1.7 | .
O=C1CC[C@@]2(O)[C@H]3Cc4ccc(O)c5c4C2(CCN3CC2CC2)[C@H]1O5 | -2.7 | 1&-0.52
c1ccc2nc(N3CCNCC3)ccc2c1 | -1.0 | 0.14&-0.088
C[N+]1(C)C2CCC1CC(OC(=O)c1ccccc1)C2 (stereo not given) | -1.5 | .
COc1cccc(CNC2CN3CCC2CC3)c1 (stereo not given) | 0.0 | -1.1
CC1CCN(CC(=O)c2cccc(C(F)(F)F)c2)CC1 | -1.5 | .

Reprinted at random: 6 records from the list.
smiles | BasE inh | KSHV LANA nucl
O=C1CC[C@@]2(O)[C@H]3Cc4ccc(O)c5c4C2(CCN3CC2CC2)[C@H]1O5 | -2.7 | 1&-0.52
C=CCN1CC[C@]23c4c5ccc(O)c4O[C@H]2/C(=N/N=C2\CC[C@@]4(O)[C@H]6Cc7ccc(O)c8c7[C@@]4(CCN6CC=C)[C@H]2O8)CC[C@@]3(O)[C@H]1C5 | . | -0.78
O=C1NC(=O)N(Cc2ccco2)C(=O)/C1=C\c1ccco1 | 4.9 | 0.58
CC1CCN(CC(=O)c2cccc(C(F)(F)F)c2)CC1 | -1.5 | .
Cn1c[n+](C)cc1C(O)c1ccccc1 (stereo not given) | 1.7 | .
N#CC(C#N)=NNc1ccccc1 | 0.7 | .

Further entries follow.
smiles | BasE inh | KSHV LANA nucl
CCOC(=O)c1ccc(-c2ccc(C=C3C(=O)NC(=O)NC3=O)o2)cc1 | -1.2 | 0.13
C=CCN1C(=O)/C(=C\c2ccc(OC)cc2)C(=O)NC1=S | 3.4 | -0.43
CC12CCC(O)CC1CCC1[C@@H]2CC(O)C2(C)C(C3=CC(=O)OC3)CCC12O (stereo not given in full) | 0.2 | 0.14
CCOC(=O)c1cc(C)sc1/N=C/C1C(=O)NC(=S)NC1=O | 4.1 | .
COc1cccc([C@]2(O)CCCC[C@H]2CN(C)C)c1 | . | -0.19
Cc1ccc(NC2=NCCS2)cc1Cl | -0.8 | 1.3
O=C(CN1CCCC1)c1cccc(C(F)(F)F)c1 | 2.1 | .
COC(=O)CC1=C(C(=O)OC)C2(C(=O)N(C)c3ccccc32)C(C(=O)OC)=C(N)O1 (stereo not given) | 1.9 | -0.25
C[C@@H]1O[C@@H](O[C@H]2C[C@@H](O)[C@]3(CO)[C@H]4[C@H](O)C[C@]5(C)[C@@H](C6=CC(=O)OC6)CC[C@]5(O)[C@@H]4CC[C@]3(O)C2)[C@H](O)[C@H](O)[C@H]1O | -2.2 | -0.53&-0.024
CCOP(=S)(OCC)SCSn1c(=O)oc2cc(Cl)ccc21 | 1.1 | .
CN1CCc2c(c(S)[nH]c(=S)c2C#N)C1 | 47 | -3.7*
CCOP(=S)(NC(C)C)OCC | -1.6 | 0.25

(further entries)
smiles | BasE inh | KSHV LANA nucl
Cc1nc2ccccn2c1P(=S)(N1CCCCC1)N1CCCCC1 | 1.4 | .
Cc1cccc(-n2c(-c3ccco3)nc3ccccc3c2=O)c1 | -1.3 | -0.6
FC(F)(F)c1cccc(CN2CCNCC2)c1 | 1.7 | .
CC(=O)Nc1nc(C)c(Oc2ccccc2)c(OC(=O)N(C)C)n1 | 2.4 | .
OCCNc1nc2ccccc2n1CN1CC=C(c2ccccc2)CC1 | 1.6 | .
C[C@]12CC3SC3C[C@@H]1CC[C@@H]1[C@@H]2CC[C@]2(C)[C@@H](O)CC[C@@H]12 (stereo not given in full) | 0.1 | -0.75
ON1C2CCCCC2N(O)C1c1ccccc1 (stereo not given) | 4.0 | -0.59
C1CCC(NC2CCCC2)C1 | 2.6 | -0.17
C=CCN1C(=O)CN=C(c2cccs2)c2c1sc1c2CCC1 | -0.2 | -0.93
COC(=O)C1=C(C)OC(N)=C(C#N)C12C(=O)Nc1ccc(C)cc12 (stereo not given) | 1.8 | -0.34
CC1CCC(C#N)(N(C)C(=O)CN2CC=C(c3ccccc3)CC2)CC1 (stereo not given) | 0.2 | .
CC1CCCC(C2(O)C(=O)Nc3ccccc32)C1=O (stereo not given) | 1.5 | .

Individual results from the list:
Under BasE inh, C=CCN1C(=O)CN=C(c2cccs2)c2c1sc1c2CCC1 reads -0.2
Under KSHV LANA nucl, Cc1cccc(-n2c(-c3ccco3)nc3ccccc3c2=O)c1 reads -0.6

(cont.)
smiles | BasE inh | KSHV LANA nucl
CN1CCc2[nH]c(=S)c(C#N)c(-c3cccs3)c2C1 | 0.8 | 0.34
CC(C)NP(=O)(c1ccccc1)C(C)(C)C (stereo not given) | 3.0 | .
CN1CCN(c2ccccc2C=C(C#N)C#N)CC1 | 0.2 | -0.012
O=c1cccc2n1CC1CC2CN(c2nc(N3CCCCC3)nc(N3CCCCC3)n2)C1 (stereo not given) | -1.2 | 0.32
Cc1ccc(N2C(=O)CC(=O)NC2=S)cc1 | 1.4 | 0.84
NC1C[C@H]1c1ccccc1 (stereo not given in full) | -1.8 | 0.91&0.59
OC1/C(=C/c2ccccc2)N2CCC1CC2 (stereo not given) | 0.1 | 0.2
CC(C)N(C(C)C)C1N=C(c2ccccc2)c2cc(Cl)ccc2N(C)C1=O (stereo not given) | . | 0.018
COc1ccc(CN)cc1OC | 1.3 | .
O=C(Cn1nc(-c2ccccc2)ccc1=O)N1CCC2(CC1)OCCO2 | 1.1 | -1.5
C=CCC1(NCCc2ccccc2)CCCCC1 | -0.1 | .
COP(=O)(OC)OC=C(Cl)Cl | . | -0.097

Entries listed so far that have a tert-butyl group:
smiles | BasE inh | KSHV LANA nucl
CC(C)(C)c1ccc(O)c(CN2CCN(c3ccccc3)CC2)c1 | 2.0 | .
Cc1ccc(S(=O)(=O)N=P(Oc2ccccc2)(c2ccc(C)o2)C(C)(C)C)cc1 (stereo not given) | -0.7 | .
CC(C)NP(=O)(c1ccccc1)C(C)(C)C (stereo not given) | 3.0 | .

(listing goes on)
smiles | BasE inh | KSHV LANA nucl
O=C1NC(=O)C(=Cc2ccc(N3CCOCC3)cc2)C(=O)N1 | 12 | -0.28
O=C(O)COc1ccccc1 | 1.0 | .
NCCc1ccc(OC(F)F)cc1 | 0.8 | .
Cc1cc(Br)c2[nH]cc(CCN)c2c1 | -35 | -0.17
O=P(NC1CCCCC1)(NC1CCCCC1)Oc1ccccc1 | 4.1 | .
CC12CCC3C(CCC45CC(=O)CCC34C5)C1CCC2=O (stereo not given) | 2.3 | -0.8
O[C@@H]1CCCC[C@H]1N1CCC(c2ccccc2)CC1 | . | 0.24
C[C@]12CCC(=O)C[C@@H]1CC[C@@H]1[C@@H]2CC[C@@]2(C)[C@H]1CC[C@]2(C)O | . | 0.12
CCOC(=O)c1c(N)n(Cc2ccccn2)c2nc3ccccc3nc12 | -0.1 | .
COc1cc[n+](OC(=O)N2CCCCC2)c(C)c1 | 0.9 | .
O=C1NC(=O)C(=Cc2cccc3ccccc23)C(=O)N1 | -1.1 | .
O=C(CCNS(=O)(=O)c1ccccc1)Nc1ccc(Br)cc1C(=O)c1ccccc1 | -6.1 | .

High-throughput results deposited in PubChem by ICCB-Longwood Screening Facility, Harvard Medical School.
